# Rango complex inh = inhibitors of Rango-importin beta complex formation; Q14974; Rango CFP/YFP FRET sensor + importin beta, 45 min; Potency, µM (top dose mostly 92.2 µM), inactives show at the highest dose inhibition of complex formation; 0.031% of 340,000 active; active = rising FRET ratio curve, often small or poorly fitted; inconclusive = mostly compound fluorescence or quenching in the first reads; inactive = flat curves in all reads;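 note: potency is the fitted concentration of half-maximal effect; 0% = DMSO wells and 100% = buffer wells lacking importin beta; nearly all actives have a fitted effect of over 15% in size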
# Target sequence (Q14974 whole entry, looked up): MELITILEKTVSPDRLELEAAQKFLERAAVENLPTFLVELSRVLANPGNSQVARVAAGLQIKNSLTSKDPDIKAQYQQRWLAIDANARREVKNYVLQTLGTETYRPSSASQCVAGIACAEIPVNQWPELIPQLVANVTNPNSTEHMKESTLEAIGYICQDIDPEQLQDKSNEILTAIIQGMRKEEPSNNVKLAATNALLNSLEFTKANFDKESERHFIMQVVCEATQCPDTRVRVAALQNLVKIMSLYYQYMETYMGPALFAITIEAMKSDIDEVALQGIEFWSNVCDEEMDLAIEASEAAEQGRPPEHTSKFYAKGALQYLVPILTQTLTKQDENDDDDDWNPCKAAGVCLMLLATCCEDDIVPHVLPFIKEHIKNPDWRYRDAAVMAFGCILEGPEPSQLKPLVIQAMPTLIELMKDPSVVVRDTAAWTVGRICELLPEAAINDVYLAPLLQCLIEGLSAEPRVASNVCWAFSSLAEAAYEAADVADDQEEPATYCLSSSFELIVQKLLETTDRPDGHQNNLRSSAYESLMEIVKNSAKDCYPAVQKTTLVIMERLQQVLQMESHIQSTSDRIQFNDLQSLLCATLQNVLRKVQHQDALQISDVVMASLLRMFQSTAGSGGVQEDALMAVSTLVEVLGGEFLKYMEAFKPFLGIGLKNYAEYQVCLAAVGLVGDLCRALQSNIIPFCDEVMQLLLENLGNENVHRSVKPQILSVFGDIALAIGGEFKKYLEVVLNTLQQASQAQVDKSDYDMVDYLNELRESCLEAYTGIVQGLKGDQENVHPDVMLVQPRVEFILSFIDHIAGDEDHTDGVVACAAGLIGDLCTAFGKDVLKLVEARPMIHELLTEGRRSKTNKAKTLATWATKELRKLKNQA
#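 FRET biosensor (snurportin 1 IBB flanked by EYFP and cerulean), 50 nM, with compound 5 min, then 0.125 microM importin beta in PBS, 1 mM DTT, 0.02% Tween-20, 0.1% BSA. CFP/YFP ratio read after 45 min at room temperature; pre-read flags interference.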
# miR-21 FLuc = raises the signal of a miR-21 reporter; HeLa miR-21 FLuc reporter, luciferase, 48 h; Potency, µM (doses to about 38.3 µM), for inactives: at the top dose reporter change, positive = more light; 340,000 tested, under 10 active; AID 2288; active = well fitted rising curve with a large enough effect; inconclusive = small, poorly fitted or top-dose-only effect; inactive = no such curve, though single readings can be large or run the other way;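 note: % of control where 0% means no effect; miR-21 action dims this reporter so a rising signal means less miR-21 action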
#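 HeLa cells endogenously expressing miR-21, stably carrying CMV-driven firefly luciferase with a downstream miR-21 binding site, 2000 cells/well. Titrations up to approximately 40 uM, 48 hours; luciferase luminescence read.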
# Rango dissoc inh = inhibition of RanGTP-driven Rango-importin beta dissociation. Biochemical FRET Rango-importin beta, RanGTP-induced dissociation. O95149+P62826. 0.071% of 340,000 active. Potency, µM (highest dose often 46.1 µM), for the others: at the top dose activity change, negative = inhibition; active means falling FRET ratio curve, often poorly fitted, with flat reads before Ran was added; inconclusive means other falling curves, or compound fluorescence or quenching; inactive means flat or rising ratio curve;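 note: potency is the fitted concentration of half-maximal effect; % of control where 0% means no effect; nearly all actives have a fitted effect of over 45% in size; -100% = wells without RanGTP and RCC1; the record marks most hits as doubtful in a second field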
#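 Two FRET readings bracket the reaction: one 5 min after compound meets Rango–importin beta, another 45 min after RanGTP-RCC1 (0.6 uM Ran, 0.2 uM RCC1, 2 mM GTP) is added. Only the second defines inhibition.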
# GLA inh pH 4.5 = inhibitors of human alpha-galactosidase A at pH 4.5; P06280; purified enzyme, 4-MU-alpha-Gal fluorescence, pH 4.5; activity change, negative = inhibition, % at 105 µM; 230,000 tested, under 10 active; inconclusive = small, poorly fitted or top-dose-only inhibition, or a rising curve; inactive = flat fitted curve, though single readings scatter; no compound was filed as active;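 note: 0% = full activity with enzyme and -100% = basal without enzyme; dose as in the result columns while the protocol names 77 µM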
# The depositor's hits bear a star; ? = inconclusive; nt = no result given; & = joins results of further samples.
Rango complex inh | miR-21 FLuc | Rango dissoc inh | GLA inh pH 4.5 | structure
1.4% | 8% | 3% | -17 | O=C(NC(=S)Nc1ccc(CN2CCOCC2)cc1)c1ccc2c(c1)OCCO2
2.4% | 5% | -4% | nt | O=C(NCC1CCCO1)C1CCCN(S(=O)(=O)c2ccc(Cl)cc2)C1 (centres undefined)
-1.0% | -12% | -22% | -4 | COCCNC(=O)C(c1ccc(C)o1)N(Cc1ccc(OC)cc1)C(=O)Cn1nnc2ccccc21 (centres undefined)
0.1% | -2% | -11% | 3 | CS(=O)(=O)N1CCN(c2ccccc2NC(=O)c2ccc(-c3ccc(Br)cc3)o2)CC1
-1.0% | -18% | -2% | 2 | COc1ccc2nc(SCc3nc(N)nc(Nc4ccccc4)n3)[nH]c2c1
3.3% | -9% | 10% | 9 | COC(=O)c1ccccc1NC(=S)NC(=O)c1cccc2ccccc12
-4.1% | -3% | 8% | nt | Cn1c(-c2cccc(F)c2)nc2c1c(=O)[nH]c(=O)n2Cc1ccccc1
-2.9% | -1% | 2% | 1 | O=C(COC(=O)c1ccc[nH]c1=O)c1ccc(Cl)s1
2.3% | 0% | 1% | 4 | CCOC(=O)N1CCN(C(=O)Cc2ccc(-n3c(=O)[nH]c4ccccc4c3=O)cc2)CC1
0.2% | 7% | 1% | nt | COc1cc(OC)c(NS(=O)(=O)c2cc(Br)cnc2N)cc1Cl
-9.1% | -9% | 3% | -9 | c1coc(-c2nn3c(Cn4nnc5ccccc54)nnc3s2)c1
3.8% | -24% | -4% | -5 | CN(C)S(=O)(=O)c1cccc(NC(=S)NC(=O)C2CCCCC2)c1
-4.6% | -3% | -3% | -8 | CC(C)C(=O)Nc1cc(S(=O)(=O)Nc2cccc(Cl)c2)ccc1Cl
? | -2% | -12% | 6 | COc1ccc(CC(=O)Nc2ccc(-c3noc(-c4cccc(OC)c4)n3)cc2)cc1
0.0% | 15% | -6% | ? | Cc1ccc(C2N(C)c3ccccc3-c3nc4ccccc4n32)o1 (centres undefined)

# Three entries from above, ordered by molar mass, smallest number first:
Rango complex inh | miR-21 FLuc | Rango dissoc inh | GLA inh pH 4.5 | structure
2.4% | 5% | -4% | nt | O=C(NCC1CCCO1)C1CCCN(S(=O)(=O)c2ccc(Cl)cc2)C1 (centres undefined)
? | -2% | -12% | 6 | COc1ccc(CC(=O)Nc2ccc(-c3noc(-c4cccc(OC)c4)n3)cc2)cc1
-1.0% | -12% | -22% | -4 | COCCNC(=O)C(c1ccc(C)o1)N(Cc1ccc(OC)cc1)C(=O)Cn1nnc2ccccc21 (centres undefined)

# (more compounds)
Rango complex inh | miR-21 FLuc | Rango dissoc inh | GLA inh pH 4.5 | structure
? | -1% | 0% | 3 | CCC(C)C(=O)Nc1c2c(nc3c1CCC3)CCCC2 (centres undefined)
-0.6% | nt | 6% | nt | CCC1(c2ccc(F)cc2)NC(=O)N(CC(=O)N(C)C2CCS(=O)(=O)C2)C1=O (centres undefined)
-0.4% | 11% | -5% | -5 | COc1cc(OC)cc(C(=O)N[C@H](C(=O)N2CCc3ccccc32)C(C)C)c1
-1.7% | -1% | -1% | nt | COc1ccc(-n2c(SCC(=O)Nc3cc(C)on3)nc3c(c2=O)SCC3)cc1OC
2.6% | nt | 4% | nt | CC(C)Oc1ccc(CSc2nnc3n(C)c(=O)c4c5c(sc4n23)CCCC5)cc1
0.5% | nt | 7% | nt | COc1ccc(NC(=O)Nc2ccc3c(c2)C(=O)N([C@H](C)CO)C[C@H](C)[C@@H](CN(C)S(=O)(=O)c2ccc(OC)cc2)O3)cc1
11% | ? | 4% | 1 | N=c1c2c(n(Cc3cccc(Cl)c3)c3c1CCC3)CCCC2
2.0% | -2% | -13% | -2 | CCOC(=O)c1[nH]c(C)c(/C(O)=C2\C(=O)C(=O)N(CCCN(C)C)C2c2cccnc2)c1C (centres undefined)
3.6% | 6% | 6% | -5 | Nc1nn2c(-c3ccccc3)cc(=O)[nH]c2c1N=Nc1ccc(Br)cc1
-6.3% | 3% | -9% | 2 | COc1ccccc1CN1C[C@@H]2C[C@@H](C3=Cc4cccc(OC)c4OC3)N3CCC[C@@]23C1=O
2.1% | nt | -20% | nt | COc1cc(F)c(C2=CC(=O)C[C@H](c3ccc(F)cc3)C2)cc1F
2.5% | -2% | -13% | 0 | C=CCSc1nnc(NC(=O)Cc2ccc(OC)c(OC)c2)s1
? | 7% | ? | ? | CC(=O)Oc1cc(OC(C)=O)c2c(C)cc(=O)oc2c1
2.9% | -4% | -5% | nt | CC(=O)c1ccc(N2CCN(S(=O)(=O)c3c(C)[nH]c(C)c3C(=O)N3CCCCC3)CC2)cc1
? | 15% | -12% | -4 | CCN(Cc1ccccc1)c1ccc(/C=N/NC(=S)NC(C)C)cc1

# Brought forward from above: 5 entries; new compounds follow.
Rango complex inh | miR-21 FLuc | Rango dissoc inh | GLA inh pH 4.5 | structure
2.1% | nt | -20% | nt | COc1cc(F)c(C2=CC(=O)C[C@H](c3ccc(F)cc3)C2)cc1F
2.5% | -2% | -13% | 0 | C=CCSc1nnc(NC(=O)Cc2ccc(OC)c(OC)c2)s1
? | 7% | ? | ? | CC(=O)Oc1cc(OC(C)=O)c2c(C)cc(=O)oc2c1
2.9% | -4% | -5% | nt | CC(=O)c1ccc(N2CCN(S(=O)(=O)c3c(C)[nH]c(C)c3C(=O)N3CCCCC3)CC2)cc1
? | 15% | -12% | -4 | CCN(Cc1ccccc1)c1ccc(/C=N/NC(=S)NC(C)C)cc1
0.1% | -2% | -12% | nt | O=[N+]([O-])c1ccccc1S(=O)(=O)N1CCN(Cc2ccccc2)CC1
-0.8% | -49% | 5% | -8 | Cn1cccc1/C=N/NC(=O)c1ccccn1
-1.3% | -12% | -22% | -7 | O=C(c1ccccn1)c1cc2ccccc2n1S(=O)(=O)c1ccccc1
0.0% | 1% | 26% | 3 | CC(C)NC(=O)COC(=O)c1cccc(NS(=O)(=O)/C=C/c2ccccc2)c1
4.7% | -6% | -4% | -2 | CCS(=O)(=O)c1ccc(-c2csc(-c3ccccc3Cl)n2)c(Cl)c1Cl
3.6% | nt | 18% | nt | CSc1ncccc1C(=O)OCC(=O)Nc1cccc(S(=O)(=O)N2CCOCC2)c1
? | nt | -27% | nt | COC(=O)c1ccc(NS(=O)(=O)c2cc3c4c(c2)C(C)C(=O)N4CCC3)cc1 (centres undefined)
-1.9% | -5% | 4% | -7 | CSc1nc(Cl)c(C#N)c(-c2ccc(C)cc2)n1
0.0% | nt | -4% | nt | COc1cc2c(cc1OC)[C@@H](NC(=O)C(C)C)[C@H](O)C2
1.0% | -2% | 6% | nt | CCOCC(=O)Nc1ccc(S(=O)(=O)Nc2nccs2)cc1
-0.8% | nt | -6% | nt | CCc1sc(C(=O)NCCCN2CCCC2=O)cc1Br
0.3% | 0% | -1% | -18 | Cc1c(NC(=O)CNCc2ccc3c(c2)OCO3)c(=O)n(-c2ccccc2)n1C
-0.8% | -3% | -8% | nt | CCOc1ccc(CCNC(=O)C2CCN(S(=O)(=O)N3CC(C)CC(C)C3)CC2)cc1OCC (centres undefined)
0.8% | 2% | 0% | 1 | CSc1ccc(C#N)cc1NC(=O)c1cccnc1Cl
2.5% | nt | -14% | nt | COc1ccc(/C=C/C(=O)OCC(=O)NCCc2ccccc2)c(OC)c1
-1.3% | 1% | 3% | 3 | CCN(CC)C(=O)CC(c1ccc(OC)cc1)c1c(O)cc(OC)cc1OC (centres undefined)
4.5% | -5% | 1% | -10 | Cc1ccccc1C(=O)NCCN=C1NS(=O)(=O)c2ccccc21
2.7% | -7% | -1% | 5 | CCCc1cc(NCCCN2CCOCC2)n2c(nc3ccccc32)c1C#N
3.8% | -1% | 28% | 4 | CC(=O)c1cccc(NC(=O)COC(=O)c2ccc3c(c2)OCCO3)c1
-1.0% | -2% | 22% | -1 | O=C(O)c1cc(-c2cccc([N+](=O)[O-])c2)nc2ccccc12
0.5% | -8% | -9% | -2 | CCCN1CCN(C(=O)Cn2ncc3ccccc32)CC1
5.5% | -5% | -4% | nt | COc1ccc(CN2CCN(Cc3ccco3)CC2)cc1
1.8% | -1% | 13% | 0 | CN1C(=O)N(C)C2(c3ccccc3)Nn3c(s/c(=C/c4ccccc4)c3=O)=NC12c1ccccc1 (centres undefined)
-0.3% | -4% | -13% | nt | COc1ccc(/C=N/N=C/c2ccc(OC)cc2)cc1
-2.4% | 27% | -16% | nt | CCOc1cc(CNCc2ccccc2)ccc1OCc1ccc(Cl)cc1
-0.2% | nt | 5% | nt | Cc1ccc(S(=O)(=O)N2CCN(Cc3ccccc3)CC2)s1
0.8% | 10% | 1% | -10 | COc1ccc(C(CC(=O)N2CCN(c3ccccc3)CC2)c2c(OC)cc(OC)c3ccc(=O)oc23)cc1 (centres undefined)
1.2% | -2% | -6% | -28 | CC1CCN(C(=O)C(NS(=O)(=O)c2cccc3nsnc23)c2ccccc2)CC1 (centres undefined)
-0.2% | -9% | 0% | nt | Cc1nnc(SCCC(=O)Nc2ccc(Cl)cc2)o1
? | -22% | ? | 0 | COc1ccc(C(=O)c2cc3ccc(O)cc3oc2=O)cc1
-0.7% | -2% | -3% | 4 | Cc1csc(/N=C/N(C)C)c1C#N
-0.1% | 0% | 9% | -3 | CCOC(=O)Cn1cc(Cl)c(=O)c(Cl)c1
-3.8% | -3% | 0% | -3 | CCCC(=O)Nc1ccccc1Sc1ncnc2scc(-c3ccccc3)c12
4.8% | -41% | 0% | -15 | CSc1ccccc1C(=O)Nc1ccc2c(c1)OCO2
6.2% | ? | 4% | -2 | Cc1cc(N2CCN(Cc3nc(-c4ccc(Cl)cc4)oc3C)CC2)cc(C)n1
-2.0% | 5% | 1% | -10 | COc1ccccc1NS(=O)(=O)c1ccc(O)c(C(=O)OCC(=O)N2c3ccccc3CC2C)c1 (centres undefined)
-0.9% | 3% | -14% | -3 | O=C(COC(=O)c1n[nH]c2ccccc12)NC(=O)NC1CCCC1
-0.6% | 0% | 3% | nt | COC(=O)c1sccc1NC(=O)Nc1ccccc1OC
3.1% | -2% | 5% | nt | O=C(NC1CCCCC1)C1CCN(C(=O)c2ccc(Cl)cc2)CC1
-0.4% | -3% | 16% | -5&0 | CC(=O)N1[C@H](C)C=C[C@]1(Cc1ccccc1)C(=O)NCc1cc(F)cc(C(F)(F)F)c1
0.5% | -1% | 1% | -4 | CCC(c1nnc(SCC(=O)Nc2ccc(C(=O)Nc3ccccc3OC)cc2)o1)N(C)C (centres undefined)
0.6% | -8% | -12% | 4 | CCOc1ncccc1C(=O)OCC(=O)c1ccc(F)cc1
-0.2% | -5% | -11% | 4 | O=C(NC1CCCCC1)c1cccc(COCC(F)(F)F)c1
nt | 0% | nt | -1 | COCCn1c(=O)c2c(nc3n2CCN3c2ccc(C)cc2)n(C)c1=O
-3.7% | 11% | 0% | 4 | O=S1(=O)C=C(SCc2cccc(Cl)c2)Nc2ccccc21
0.6% | -5% | 0% | -8 | CCn1c(SCc2nc(-c3ccccc3)no2)nnc1-c1cccs1
? | -7% | ? | 3 | CN1CCN(S(=O)(=O)c2ccc(NC(=O)Cc3cccs3)cc2)CC1
0.6% | 4% | -2% | -5 | CC(C)OCCCNC(=O)c1cc2c(=O)n(C)c3ccccc3c2n1C
-2.8% | -5% | 8% | nt | Cc1cnc(C(=O)NCc2ccc(F)cc2)cn1
-1.5% | nt | 2% | nt | CCC1(c2ccccc2)NC(=O)N(CC(=O)Nc2cccc(S(=O)(=O)N3CCCC3)c2)C1=O (centres undefined)
-1.3% | 0% | 25% | nt | Cc1cc(C)nc(NS(=O)(=O)c2ccc(NC(=O)C3CC3)cc2)n1
? | -32% | -9% | 1 | O=C(O)c1ccc(/C=C(\c2nc3ccccc3[nH]2)c2nc3ccccc3s2)cc1
-0.6% | -1% | 7% | -7 | Cc1ccc(NC(=O)c2cccc(N3C(=O)CCC3=O)c2)nc1
-0.7% | nt | -15% | nt | CC(NC(=O)COC(=O)CNS(=O)(=O)/C=C/c1ccccc1)c1ccccc1 (centres undefined)

# In the list so far, these contain a COOH group.
Rango complex inh | miR-21 FLuc | Rango dissoc inh | GLA inh pH 4.5 | structure
-1.0% | -2% | 22% | -1 | O=C(O)c1cc(-c2cccc([N+](=O)[O-])c2)nc2ccccc12
? | -32% | -9% | 1 | O=C(O)c1ccc(/C=C(\c2nc3ccccc3[nH]2)c2nc3ccccc3s2)cc1

# Compound activity from PubChem BioAssay.

# An excerpt (hit frequency here may not be typical).
